Vaccinia Venus: qHTS for Stage-Specific Inhibitors of Vaccinia Orthopoxvirus: Venus Reporter Primary qHTS; Vaccinia virus Venus reporter expression, fluorescence; actives 0.46% (n = 330,000); Potency, µM (titrated, usually from 36.5 µM), inactives show at the highest dose activity change, negative = inhibition, actives largely listed as inhibitors; active means well fitted inhibition curve with a large enough effect; inconclusive means small, poorly fitted or top-dose-only effect; inactive means no such curve, though single readings can be large or run the other way; tested in A549 cells; also: nearly all actives have a fitted effect of over 30% in size; inactives centre near -10
Vaccinia mCherry: qHTS for Stage-Specific Inhibitors of Vaccinia Orthopoxvirus: mCherry Reporter Primary qHTS. Potency, µM (titrated, usually from 36.5 µM), for the others: at the highest dose activity change, negative = inhibition, most hits filed as inhibitors. Vaccinia virus mCherry reporter infection, fluorescence; about a quarter of the inactives have no number. actives 0.63% (n = 310,000); active = well fitted inhibition curve with a large enough effect; inconclusive = small, poorly fitted or top-dose-only effect; inactive = no such curve, though single readings can be large or run the other way; tested in A549 cells; also: nearly all actives have a fitted effect of over 35% in size; inactives centre near -10
* = called active by the depositor; i = inactive; ? = inconclusive; · = not tested or not shown; & = joins results of further samples; [ ] = remark or other dose. % is scaled to controls: 0 for no effect and ±100 for the full control effect; potency is read from the fitted curve at half-maximal effect. Outcome played no part in choosing rows; about 0.87% have a hit in one of these screens.

| canonical_smiles | Vaccinia Venus | Vaccinia mCherry |
| --- | --- | --- |
| CSCCC(c1nc2ccccc2[nH]1)n1c(=O)c(-c2cc3ccccc3[nH]2)nc2ccccc21 (stereo not drawn) | -3% | i |
| Cn1c(=O)c2c(nc(N3CCCCCC3)n2CC(O)COc2ccccc2)n(C)c1=O (stereo not drawn) | -16% | -13% |
| COCc1cc(C)nc(OCC(=O)N/N=C/c2cccc(OC)c2)c1C#N | -8% | -11% |
| CCCn1c(=O)sc2cc(NC(=O)c3ccc(OC)c(Br)c3)ccc21 | -12% | -15% |
| Cc1ccnc(NC(=O)C2CCCN(S(=O)(=O)c3ccc4[nH]c(=O)ccc4c3)C2)c1 (stereo not drawn) | -6%[7.34 µM] | -4%[7.34 µM] |
| O=C(NCc1ccc2c(c1)OCO2)c1nc(S(=O)(=O)Cc2ccccc2)ncc1Cl | -29% | -26% |
| CCO[C@@H]1OC(C(=O)NC2CC2)=C[C@H](c2ccccc2)[C@H]1CCCO | -10% | i |
| C=CCc1c(C)nc(SCc2nc3ccccc3c(=O)[nH]2)[nH]c1=O | -12% | · |
| CC(C)c1ccc(CC(=O)N2CCC2(C)C(=O)Nc2cccc(C#N)c2)cc1 (stereo not drawn) | -17% | i |
| COc1ccc(NC(=O)c2cccc(NC(=O)c3ccco3)c2)c(OC)c1 | -14% | -19% |
| CCOC(=O)[C@]12CCCC=C1N(Cc1ccc(Cl)cc1Cl)C(=O)[C@H](CC(=O)NCCC(C)C)C2 | -16% | 3% |
| Cc1nc(N)ncc1-c1ccc2c(c1)OCO2 | -8% | -17% |
| O=C(O)c1ccc(Cl)c(S(=O)(=O)N(Cc2ccccc2)c2ccccc2)c1 | -8% | i |
| N#Cc1ccc(C(=O)N2CCC3CC2c2cc(N4CCCCC4)ccc23)cc1 (stereo not drawn) | -7% | -11% |
| CC(C)CC(c1nnnn1C(C)C)N1CCN(c2ccccc2)CC1 (stereo not drawn) | -6% | · |
| CCC(=O)Nc1ccccc1N1CCN(S(C)(=O)=O)CC1 | -9% | -6%[1.46 µM] |
| COc1cccc(NC(=O)C2CCC2)c1 | -3% | -4% |
| Cc1ccc(CN(C(=O)COc2ccc(Cl)cc2)c2ccccn2)o1 | -5% | -13% |
| COc1cc2nc(NC3CCN(C)CC3)nc(NC3CCN(C)CC3)c2cc1OC | -20% | -7% |
| COc1ccc([N+](=O)[O-])c(OC)c1C(=O)NC(=O)Nc1nc(C)cc(C)n1 | -2% | -4% |
| O=C(C1CCN(S(=O)(=O)N2CCOCC2)CC1)N1CCN(Cc2ccccc2)CC1 | -8% | · |
| O=C(c1ccc(Br)s1)N1CCN(S(=O)(=O)c2ccccc2)CC1 | -13% | -24% |
| CC(=O)Nc1ccc(OCC(=O)NC(C)C(C)C)cc1 (stereo not drawn) | -2% | -14% |
| COc1ccc(OC)c(-c2cc(C(=O)N3CCN(c4ncccn4)CC3)c3ccccc3n2)c1 | -8% | · |
| O=C(O)C1CCN(S(=O)(=O)c2cccs2)CC1 | 1% | 15% |
| CN(C(=O)c1ccc(NC(=O)Cc2cccc(NC(=O)C3CCCN(C(=O)CCc4ccccc4)C3)c2)cc1)C1CCCC1 (stereo not drawn) | ? | -28% |
| COc1cc(C)c(CN2CCN(C(=O)CCC(=O)c3ccc(C)s3)CC2)cc1OC | -21% | -4% |
| CCc1ccc(N2CCN(C(=O)c3ccc4c(c3)OCO4)CC2)cc1 | -13% | -19% |
| COc1ccc(CNC(=O)C2CCCN(C(=O)c3cnn(-c4ccc(F)cc4)c3-n3cccc3)C2)cc1 (stereo not drawn) | -2% | -7% |
| COc1ccc(C2NC(=O)N(C)C3=C2C(=O)N(c2cccc(C(=O)O)c2)C3)cc1 (stereo not drawn) | -9% | 6% |
| CCOc1ccccc1C(=O)NCc1nc2cccnc2n1Cc1ccc(C)cc1 | -11% | -20% |
| COc1ccc(NC(=O)CN2CCN(S(=O)(=O)c3ccc(Cl)cc3)CC2)cc1 | -17% | ? |
| CCN(c1cccc(C)c1)S(=O)(=O)c1cc2c3c(c1)CCN3C(=O)CC2 | -26% | -8% |
| CCOc1cc(/C=C2\C(=N)N3N=C(S(C)(=O)=O)SC3=NC2=O)ccc1OCCOc1cccc(OC)c1 | -11% | i |
| Cn1cccc1-c1nc2ccc(NC(=O)c3ccccc3)cc2[nH]1 | -11% | i |
| CCc1ccc(-c2cc(C)no2)cc1S(=O)(=O)N1CCN(c2ccccc2OC)CC1 | -16% | i |
| CC(=O)Nc1ccc(S(=O)(=O)NCc2nnnn2-c2ccc(F)cc2)cc1 | -14% | -19% |
| C=C(C)CNC(=S)N/N=C/C1=CCC2CC1C2(C)C (stereo not drawn) | -14% | -24% |
| CC[C@@H]1c2ccccc2[C@@H]2CC[C@H]1N2c1ccccc1 | -13% | ? |
| Cc1cc(C)c(S(=O)(=O)NCCc2csc3nc(-c4ccc(Cl)cc4)nn23)c(C)c1 | -29% | -27% |
| CC1CCCN(C(=O)c2ccccc2OC2CCN(S(C)(=O)=O)CC2)C1 (stereo not drawn) | -4% | -11% |
| Cc1ccc(N=Cc2c(O)n(C)c(=O)n(C)c2=O)nc1 | -4% | -6% |
| CC(C)Cn1c(N)c(C(=O)COC(=O)Cc2cccc(C(F)(F)F)c2)c(=O)n(C)c1=O | -9% | -11% |
| CCOC(=O)c1ccc(N2CCCCC2)c(NS(=O)(=O)c2ccc(C)cc2)c1 | -5%[7.34 µM] | ? |
| COc1ccc(-c2csc(C(NC(C)=O)c3ccc(F)c(F)c3)n2)cn1 (stereo not drawn) | 4% | 5% |
| C=CCN(c1ccccc1)S(=O)(=O)c1cccc(C(=O)N2CCCC2)c1 | -21% | -1% |
| N#C/C(=C\c1ccc(F)cc1)C(=O)NCC1CCCO1 (stereo not drawn) | 4% | -17% |
| Cc1ccc(Cl)cc1-n1c(=O)cc(N2CCN(C(=O)c3ccco3)CC2)[nH]c1=O | 1% | -5% |
| C[C@]12CCC(OC(=O)CCC(=O)O)CC1=CCC1C2CC[C@]2(C)C(=O)CCC12 (stereo partly drawn) | -18% | -5% |
| O=C1/C(=C/c2cccnc2)SC(=S)N1Cc1ccco1 | 23% | -5% |
| O=C(O)CCCN1C(=O)/C(=C/c2ccncc2)SC1=S | 2% | -12% |
| CCCNC(=O)c1ccc(N2CCC3(CC2)CC(c2cccc(Br)c2)=NO3)c(NC(=O)c2ccc(Br)cc2)c1 | -9% | 4% |
| CCOC(=O)CSc1ncnc2c1c(-c1ccccc1)cn2-c1ccc(OC)cc1 | 0%&-5% | -4%&-19% |
| Cc1cc(=O)n2nc(N3CCC(C(=O)NCc4ccccc4)CC3)sc2n1 | -6%&4% | -6%&-3% |
| COc1cc(CCC(=O)NCc2ccc3c(c2)CCN3C(=O)c2cccc(C)c2)cc(OC)c1OC | -7% | -16% |
| CCCCOC1NC(=O)NC(=O)C1(F)C(=O)OCC (stereo not drawn) | -22% | ? |
| CCOc1ccc(-c2c(C(=O)N/N=C(\C)c3ccccc3OC)nnn2-c2nonc2N)cc1 | 0%[7.34 µM] | i[7.34 µM] |
| CC(C)(C)N(C=C(Cl)Cl)C(=O)NC1CCCCC1 | -16% | · |
| Clc1nc2ccccc2cc1-c1nnn(-c2ccccc2)n1 | -18% | i |
| COc1ccc(C(=O)NCCCn2cccn2)cc1OC1CCN(C(C)=O)CC1 | -16% | i |

Next part
| canonical_smiles | Vaccinia Venus | Vaccinia mCherry |
| --- | --- | --- |
| C=CCn1c(C)cc(C(=O)COC(=O)c2ccc(N)c([N+](=O)[O-])c2)c1C | ? | -27% |
| OC1CCC(Nc2ccn3nc(-c4cccc(Cl)c4)cc3n2)CC1 (stereo not drawn) | 5% | -3% |
| COc1ccc(C[C@H]2CN3C(=NC[C@@H]3Cc3ccc(O)cc3)N2C[C@H](C)NC(=O)c2ccc(C)c(Br)c2)cc1 | 13µM* | ? |
| COc1ccc(OC)c(C2=CC(=O)C[C@H](c3ccc(F)cc3)C2)c1 | -15% | ? |
| CC1CCN(C(C(=O)Nc2ccc(C(C)C)cc2)c2ccc3c(c2)OCO3)CC1 (stereo not drawn) | -1% | 16% |
| Cc1ccc(-n2c(C)cc(/C=N/Nc3ccc([N+](=O)[O-])cn3)c2C)cc1 | 6% | -4% |
| CCCCn1c(N)c(N(CCC(C)C)C(=O)CN2C(=O)C3CCCCC3C2=O)c(=O)[nH]c1=O (stereo not drawn) | -19% | -11% |
| NC(=O)c1nc(-c2ccccc2)c(-c2ccccc2)[nH]c1=O | -9% | -9% |
| CCOC(=O)c1ccc(N2C(=O)c3[nH]nc(-c4ccc(OCC)cc4)c3C2c2ccc(OC)cc2OC)cc1 (stereo not drawn) | -28% | -30% |
| COc1ccc(CNC(=O)CCC(=O)N2CCSc3ccccc32)cc1 | 5% | -15% |
| O=C(c1ccccc1-c1nc2ccccc2[nH]1)N1CCCCC1 | 8% | · |
| CC1(C(=O)NCc2ccccc2)CSCC(=O)N1C1CC1 (stereo not drawn) | 4% | -7% |
| COc1ccc(-c2cc(C(=O)NCCc3ccc(OC)c(OC)c3)c3ccccc3n2)cc1 | -13% | -16% |
| CCC1CN(CC(=O)NCc2ccc3c(c2)OCO3)Cc2ccc(Cl)cc2O1 (stereo not drawn) | -6% | -12% |
| N#Cc1nc(-c2ccccc2)cc(-c2ccccc2)n1 | -22% | -20% |
| Cc1cccc(OCc2nc(C)cc(=O)[nH]2)c1 | -6% | i |
| CC(=O)c1ccc(Oc2nc(-c3cccnc3)nc3ccccc23)cc1 | -5% | -3% |
| CCn1c(SCC(=O)Nc2sc3c(c2C#N)CCCC3)nnc1-c1ccco1 | -10% | i |
| Cc1ccc([N+](=O)[O-])cc1S(=O)(=O)Nc1cccc(-c2ccc(N3CCOCC3)nn2)c1 | -5% | -11% |
| O=C1CC(c2ccco2)CC(O)=C1C=Nc1cc(Cl)cc(Cl)c1 (stereo not drawn) | -27% | · |

Shown with each value named: entries from further up
smiles: COc1ccc(-c2cc(C(=O)NCCc3ccc(OC)c(OC)c3)c3ccccc3n2)cc1
  Vaccinia Venus = -13%
  Vaccinia mCherry = -16%

smiles: CCC1CN(CC(=O)NCc2ccc3c(c2)OCO3)Cc2ccc(Cl)cc2O1 (stereo not drawn)
  Vaccinia Venus = -6%
  Vaccinia mCherry = -12%

smiles: N#Cc1nc(-c2ccccc2)cc(-c2ccccc2)n1
  Vaccinia Venus = -22%
  Vaccinia mCherry = -20%

Full records from above. Order of values: Vaccinia Venus	Vaccinia mCherry
CC1(C(=O)NCc2ccccc2)CSCC(=O)N1C1CC1 (stereo not drawn) is listed with 4%	-7%
NC(=O)c1nc(-c2ccccc2)c(-c2ccccc2)[nH]c1=O is listed with -9%	-9%

Next section:
| canonical_smiles | Vaccinia Venus | Vaccinia mCherry |
| --- | --- | --- |
| COc1ccc2c(c1)[C@H]1[C@H](CO2)[C@H](c2ccccc2)[C@]2(C)C(=O)N[C@H](C)C(=O)N12 | -2% | -11% |
| O=S(=O)(Nc1ccc(-c2ccc(N3CCCC3)nn2)cc1)c1cccc(C(F)(F)F)c1 | -16% | -24% |
| CCc1cc2cccc(C)c2nc1SCC(=O)Nc1cc(C)on1 | 2% | -12% |
| COc1ccc(-c2nnc(SCc3c(C)noc3C)n2N)cc1OC | -5% | -11% |
| CC(C)C1CC(c2ccccc2)(C(CN)CO)CCO1 (stereo not drawn) | -1% | -9% |
| COC(=O)[C@@]12CCCN1[C@H](c1ccc(-c3ccc(OC)cc3)c(OC)c1)[C@H]1C(=O)N(C)C(=O)[C@H]12 | -9% | -4% |
| Cc1cc(C)cc(C(=O)NCC(=O)OCC(=O)N2c3ccccc3NC(=O)C2(C)C)c1 | -14% | 0% |
| O=S(=O)(c1ccc2c(c1)CCCC2)N1CCN(c2nc(-c3cccs3)nc3ccccc23)CC1 | -13% | -12% |
| O=C(NCc1ccc2c(c1)OCO2)c1ccco1 | -2% | i |
| COc1cccc(-c2nc(SCC(=O)NCc3ccco3)c3c(=O)n(C)c(=O)n(C)c3n2)c1 | 0% | 4% |
| COc1ccc(-n2cc(-c3ccccc3)[n+]3c2CCCCC3)cc1 | -1% | i |
| COc1ccc(NC(=O)CN2CCN(C(=O)N3CCOCC3)CC2)cc1 | -12% | -12% |
| O=C(O)c1ccc(N=Cc2nc(-c3ccco3)oc2O)cc1 | -11% | i |
| COc1cc(/C=N/NS(=O)(=O)c2ccc(C(C)(C)C)cc2)cc([N+](=O)[O-])c1O | -10% | -11% |
| CCn1c(C(C)NC(=O)c2ccc(Cl)cc2)n[nH]c1=S (stereo not drawn) | -2% | -7% |
| CCOC(=O)c1c(NC2=NS(=O)(=O)c3ccccc32)sc2c1CCC(C)C2 (stereo not drawn) | -9% | -16% |
| CCOc1ccc(Nc2nc(Nc3ccc(OCC)cc3)nc(N3CCOCC3)n2)cc1 | -9%[7.34 µM] | -3%[7.34 µM] |
| Cc1cc(C)cc(Cn2c3ccc(NC(=O)NCCc4cccs4)cc3c(=O)n2C)c1 | -10% | 1% |
| CCOCCCNC(=S)N1CCC(C(=O)c2ccc(C)cc2)CC1 | -24% | -13% |
| O=C(C1=C[C@@H](C2CCCCC2)C[C@@H](OCc2ccc(CO)cc2)O1)N1CCN(Cc2ccc3c(c2)OCO3)CC1 | ? | -28% |
| CCOc1ccc(N(C)S(=O)(=O)c2ccc3[nH]cc(C(=O)NCCOC)c(=O)c3c2)cc1 | -8% | i |
| CC(=O)Oc1ccc(CN2C(=O)C(CCc3ccccc3)ON=C2c2cnccn2)cc1 (stereo not drawn) | -7% | i |
